Cruzain inh Det = blocks cruzain activity in presence of Triton detergent; actives 0.43% (n = 200,000); AID 1478; purified cruzain, Z-FR-AMC fluorescence, 0.01% Triton; P25779; Potency, µM, without a hit: max response, negative = inhibition, usual class: inhibitors; active means well fitted curve in the direction sought with a large enough effect; inconclusive means small, poorly fitted or top-dose-only effect, or another doubt; inactive means no such curve, though single readings can be large; an effect the other way counts as inactive or inconclusive;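 further: plate controls were neutral wells for no effect and buffer without enzyme for full effect; nearly all actives have a fitted effect of over 40% in size; top concentration of the series not given in the record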
Target sequence (P25779 123-467 limits assumed): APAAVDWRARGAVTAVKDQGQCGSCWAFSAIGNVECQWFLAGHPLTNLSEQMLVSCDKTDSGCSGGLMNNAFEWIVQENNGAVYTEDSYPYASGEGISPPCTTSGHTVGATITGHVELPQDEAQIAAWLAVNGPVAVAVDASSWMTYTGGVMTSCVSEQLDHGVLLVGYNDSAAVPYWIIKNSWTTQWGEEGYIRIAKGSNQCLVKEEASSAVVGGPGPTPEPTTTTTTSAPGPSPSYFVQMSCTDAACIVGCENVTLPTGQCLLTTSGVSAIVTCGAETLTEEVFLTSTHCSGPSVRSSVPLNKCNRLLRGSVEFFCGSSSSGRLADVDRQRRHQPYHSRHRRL
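Compounds were screened in titration against cruzain (1.5 nM) with 0.01% Triton X-100 to counter colloidal aggregation. Activity was the AMC fluorescence increase over 60 s after adding 2 uM Z-FR-AMC at pH 5.5.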
SARS PLpro yeast = blocks SARS-CoV papain-like protease in a yeast assay; S. cerevisiae expressing SARS-CoV PLpro, growth rescue; control for the full effect not named in the record; Potency, µM (doses to about 32.9 µM), for inactives: top-dose activity, positive = growth rescue; actives 0.19% (n = 330,000); AID 485353; further: 0% is about no effect; nearly all actives have a fitted effect of over 55% in size; growth read by luminescence after 48 h
NS1 function inh = influenza NS1 inhibition. S. cerevisiae slowed by influenza A NS1, growth recovery by OD600. actives 0.4% (n = 270,000). AID 2326. Potency, µM (titrated, usually from 46.1 µM), for the others: at the highest dose activity, positive = more growth; further: actives are rising curves; nearly all actives have a fitted effect of over 50% in size
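A cell-based growth assay was used: compounds that relieve NS1-induced slow growth of budding yeast raise OD600. Assay medium was yeast nitrogen base with ammonium sulphate and -URA supplement, pH 6.0, with 2% galactose.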
RE007 growth inh = less growth of the S. pombe RE007 Vpr strain; S. pombe RE007 Vpr strain, BacTiter-Glo ATP luminescence, 24 h; control for the full effect not named in the record; Potency, µM (highest dose often 92.2 µM), without a hit: at the top dose activity change, negative = less growth; actives 0.21% (n = 360,000); AID 651644; active = well fitted falling curve with a large enough effect; inconclusive = small, poorly fitted or top-dose-only effect; inactive = no such curve, though single readings can be large or run the other way;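 further: on the % scale 0 is the no-effect control and ±100 the full control effect; nearly all actives have a fitted effect of over 50% in size; the assay follows cell death caused by Vpr and the record does not say whether a fall means rescue or toxicity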
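Fission yeast strain RE007, carrying one chromosomally integrated HIV-1 vpr copy, was seeded at OD 0.01 in PMG+AL medium with 23 nL pinned compound. After 24 h at 30 °C and 99% humidity, viability was read by BacTiter-Glo luminescence.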
LASV entry inh = inhibitors of Lassa virus binding or cell entry | Lassa virus pseudotype entry inhibition, cell reporter; control for the full effect not named in the record | Potency, µM (titrated, usually from 37.9 µM), without a hit: at the highest dose activity change, negative = inhibition, most hits filed as inhibitors | actives 1.2% (n = 300,000) | AID 540256; active means well fitted inhibition curve with a large enough effect; inconclusive means small, poorly fitted or top-dose-only effect, or effect the other way; inactive means flat fitted curve, though single readings scatter; tested in HEK293 cells; further: on the % scale 0 is the no-effect control and ±100 the full control effect; nearly all actives have a fitted effect of over 50% in size; luciferase read-out
2A StopGo = FMDV 2A StopGo reporter, luciferase signal; human cells with a luciferase reporter of 2A StopGo recoding; control for the full effect not named in the record; Potency, µM (highest dose often 57.9 µM), for the others: at the top dose signal change, negative = less light; actives 1.2% (n = 410,000); AID 1159524; active = well fitted falling curve with a large enough effect; inconclusive = small, poorly fitted or top-dose-only effect; inactive = no such curve, though single readings can be large or run the other way; tested in HEK293T cells; further: on the % scale 0 is the no-effect control and ±100 the full control effect; nearly all actives have a fitted effect of over 45% in size; luciferase light after 4 h
Cruzain inh noDet = cruzain (T. cruzi) inhibition without detergent. P25779. purified cruzain, Z-FR-AMC fluorescence, no detergent. Potency, µM, for the others: max response, negative = inhibition, hits mostly inhibitors. actives 2.3% (n = 200,000). AID 1476; active means well fitted curve in the direction sought with a large enough effect; inconclusive means small, poorly fitted or top-dose-only effect, or another doubt; inactive means no such curve, though single readings can be large; an effect the other way counts as inactive or inconclusive;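 further: plate controls were enzyme without inhibitor for no effect and buffer without enzyme for full effect; nearly all actives have a fitted effect of over 40% in size; top concentration of the series not given in the record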
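Detergent-free condition (0.00005% Triton X-100) in acetate buffer pH 5.5 with DTT. 1.5 nM enzyme and compound were pre-mixed 15 min, then 2 uM Z-FR-AMC substrate added; reaction progress from fluorescence change between first and third reads (60 s).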
Marburg entry inh = blocks Marburg virus binding to or entry into cells; actives 1.8% (n = 300,000); Marburg virus pseudotyped entry inhibition, cell reporter; control for the full effect not named in the record; about a third of the inactives were read at about 46 µM; Potency, µM (top dose mostly 37.8 µM), without a hit: top-dose activity change, negative = inhibition, actives largely listed as inhibitors; AID 540276; active = well fitted inhibition curve with a large enough effect; inconclusive = small, poorly fitted or top-dose-only effect, or effect the other way; inactive = flat fitted curve, though single readings scatter; tested in HEK293 cells; about a fifth of its hits are not listed in these tables; further: on the % scale 0 is the no-effect control and ±100 the full control effect; luciferase read-out
An asterisk follows results filed as active; u = inconclusive; x = no result given; & = joins results of further samples; [ ] = remark or other dose. Unless noted, the call rests on the fitted dose curve; in most records, active means well fitted rising curve with a large enough effect; inconclusive means small, poorly fitted or top-dose-only effect; inactive means no such curve, though single readings can be large or run the other way. Potency means the concentration at half of the fitted maximal effect.

SMILES	Cruzain inh Det	SARS PLpro yeast	NS1 function inh	RE007 growth inh	LASV entry inh	2A StopGo	Cruzain inh noDet	Marburg entry inh
CN(C)Cc1nc2ccccc2c(=O)n1CC(=O)Nc1cccc(S(=O)(=O)N2CCOCC2)c1	x	-1%	x	-3%	9%	-12%	x	-17%[46.1 µM]
Cc1ccccc1C(=O)Nc1ccc(OCc2cc(=O)n3ccccc3n2)cc1	2.4%	x	x	x	u	5%	5%	x
C=CCn1c(SCC(N)=O)nnc1-c1cccc(Br)c1	2.6%	2%	-1%	9%	8%	-10%	-1%	8%
c1ccc2c(c1)oc1c(Nc3ccc4c(c3)OCO4)ncnc12	-0.5%	0%	0%	-11%	u	33%[activator]	u	u
Cc1cnc(NC(=O)c2ccncc2)s1	x	0%	x	15%	15%	36%[activator]	x	7%
COc1ccc(CC(=O)Nc2nc(-c3ccc(F)c(F)c3)cs2)cc1	x	3%	6%	2%	u	u	x	u
Cc1ccc(S(=O)(=O)Oc2ccccc2/C=N/NC(=O)c2nn(C)cc2[N+](=O)[O-])cc1	-6.3%	-6%	-9%	-28%	0%	-22%	5%	u
O=C1CCCc2c1cc(C(=O)NCc1ccco1)c(=O)n2-c1ccccc1	-4.1%	-3%	-6%	20%	-3%	-1%	-1%	-1%
COc1ccc(Br)cc1S(=O)(=O)n1nc(C)cc1C	x	1%	5%	-17%	x	17%	x	x
COc1ccc(S(=O)(=O)N(C)Cc2cccs2)cc1Br	0.0%	-18%	0%	12%	6%	39%[activator]	5%	-5%
C=CCN1C(=O)CC(C(=O)NC)SC1=Nc1ccc(C(=O)OCC)cc1 (stereo not given)	4.2%	-7%	-3%	-3%	u	-6%	4%	9%
COc1cccc(C2CC(=O)Nc3cc4c(cc32)CCC4)c1 (stereo not given)	x	-2%	-34%	-2%	x	-24%	x	x
CCOC(=O)c1c(C)n(O)c2ccc(Cl)cc2c1=O	0.7%	-5%	-35%	17%	-4%	17%	4%	7%
O=C(CN1C(=O)NC2(CCCCC2)C1=O)N1CCOCC1	x	1%	x	19%	17%	11%	x	-7%
c1nc(NCCN2CCOCC2)c2c3c(sc2n1)CCCCC3	0.9%	0%	-7%	-5%	-7%	-15%	-1%	-4%
CCOc1cccc(-c2nc3ccccc3c(=O)o2)c1	-3.6%	x	x	x	u	41%[activator]	0%	x
COC(=O)c1ccccc1NC(=O)c1noc2c1CC(C(C)(C)C)CC2 (stereo not given)	2.5%	-1%	-40%	-1%	10%	-23%	-7%	0%
COc1cccc(NC(=O)CSc2nc3ccccc3cc2Cc2ccccc2)c1	1.5%	1%	12%	4%	12%	x	u	u
CC(=O)/C(C)=N/O	6.7%	x	9%	x	8%	x	-10%	u
O=C(Nc1cccc(C(F)(F)F)c1)c1cc(-c2ccc(Cl)s2)nc2ccccc12	-2.5%	x	x	x	-6%[46.1 µM]	u	4%	2%[46.1 µM]
COc1ccccc1N1CCN(C2CCN(C(=O)c3cccs3)CC2)CC1	4.1%	10%	-2%	6%	-12%	1%	7%	-9%&-9%
CCCn1nc(NC(=O)c2cccc(Cl)c2)c2cc3cccc(C)c3nc21	-1.3%	x	x	x	10%[46.1 µM]	7%	-14%	-21%[46.1 µM]
CC(=NCc1ccncc1)C1=C(O)c2ccccc2C1=O	-1.5%	-13%	0%	x	x	x	-5%	1%
CS(=O)(=O)Oc1ccc(/C=N/NC(=O)c2ccncc2)cc1	-7.8%	10%	12%	-5%	u	24%	-8%	-16%
CC(C)CC(O)(CC(C)C)C(=O)NNc1ccccc1	-0.3%	8%	2%	85%	-29%	-4%	-7%	23%
CCCn1c(N2CCN(CC(=O)c3c(C)n(C)c4ccccc34)CC2)nc2c1c(=O)[nH]c(=O)n2C	-0.5%	1%	5%	u	-18%	-6%	7%	-29%
COc1cc(CO)cc(Br)c1OCC(=O)Nc1cccc2ccccc12	x	-2%	x	-5%	-8%	-21%	x	-13%[46.1 µM]
Cc1ccc(CN2C(=O)c3ccccc3Sc3ccc(C(=O)NC4CCCC4)cc32)cc1	0.7%	x	x	x	-31%[46.1 µM]	11%	6%	x
COc1ccc(OC)c(-n2nnnc2SCC(=O)Nc2ccccc2N2CCOCC2)c1	x	0%	-6%	3%	x	-10%	x	x
COc1ccc(S(=O)(=O)N(CC(=O)NCc2cccnc2)Cc2ccccc2)cc1	x	1%	-1%	-1%	-8%	-4%	x	24%[46.1 µM]
O=C(Nc1ccccc1Sc1ccccc1)c1ccccc1	0.6%	-11%	-3%	-5%	-8%	-15%	-1%	-11%
C=CCn1c(SCc2ccccc2C#N)nnc1-c1cc(Br)ccc1O	-0.6%	-20%	-126%	4%	-12%	6%	-6%	u
O=C(CSc1nnnn1-c1ccccc1)N1CCc2ccccc2C1	-1.7%	-35%	-100%	6%	0%	-5%	-5%	22%
O=C(COc1ccccc1Cl)Nc1ccccc1C(=O)Nc1cccc(C(=O)O)c1	x	-1%	5%	6%	x	22%	x	x
COc1ccc(N2C(=O)C3CCCN3C2c2cccc(C)c2)cc1Cl (stereo not given)	9.7%	3%	-7%	-18%	17%	3%	7%	7%
O=C(NCc1cccnc1)C1CCN(c2ccc(S(=O)(=O)N3CCOCC3)cc2Cl)CC1	x	-1%	0%	-12%	u	u	x	u

Ordered by heavy-atom count (low to high): part of the list above
SMILES	Cruzain inh Det	SARS PLpro yeast	NS1 function inh	RE007 growth inh	LASV entry inh	2A StopGo	Cruzain inh noDet	Marburg entry inh
C=CCn1c(SCC(N)=O)nnc1-c1cccc(Br)c1	2.6%	2%	-1%	9%	8%	-10%	-1%	8%
O=C(CN1C(=O)NC2(CCCCC2)C1=O)N1CCOCC1	x	1%	x	19%	17%	11%	x	-7%
O=C(COc1ccccc1Cl)Nc1ccccc1C(=O)Nc1cccc(C(=O)O)c1	x	-1%	5%	6%	x	22%	x	x

(continued)
SMILES	Cruzain inh Det	SARS PLpro yeast	NS1 function inh	RE007 growth inh	LASV entry inh	2A StopGo	Cruzain inh noDet	Marburg entry inh
C/C(CC(=O)Nc1ccc(Cl)cc1C(F)(F)F)=N\NC(N)=S	x	6%	-4%	2%	1%	-20%	x	-24%[46.1 µM]
Cc1cccc(OCc2nnc(N)s2)c1C	3.5%	-4%	-8%	-8%	6%	9%	-8%	10%
COCCC(=O)N1CCCC(CCC(=O)NCc2ccc(F)c(F)c2)C1 (stereo not given)	x	-1%	0%	-16%	20%[46.1 µM]	0%	x	5%[46.1 µM]
CC(NC(=O)c1cccc(S(=O)(=O)N2CCN(C)CC2)c1)C1CC2CCC1C2 (stereo not given)	x	-3%	-5%	-26%	u	4%	x	-24%[46.1 µM]
CCOc1ccc(Br)cc1S(=O)(=O)NCCN1CCCC1	x	-2%	-4%	-9%	x	19%	x	x
Cc1oc2ccc(NS(=O)(=O)c3ccccc3)cc2c1C(=O)Nc1ccccc1	-6.7%	12%	-1%	-4%	-12%	20%	-7%	2%[46.1 µM]
Cc1cccc(CC(C)NC(=O)CCc2nnc(-c3ccccc3)o2)n1 (stereo not given)	x	2%	0%	-11%	x	21%	x	x
O=C(NC1CCC(O)CC1)c1cccc2cccnc12 (stereo not given)	x	1%	2%	8%	20%	-13%	x	3%[46.1 µM]
Cc1nc(S(=O)(=O)c2ccc(Cl)cc2Cl)nc2c1CCC2	6.1%	6%	u	-11%	8%	15%	-1%	13%
O=S1(=O)CC/C(=N/Nc2ccccn2)c2cc(F)ccc21	x	1%	4%	-7%	0%[46.1 µM]	-21%	x	-5%[46.1 µM]
CC(NC(=O)c1ccc(C(F)(F)F)cc1)C(c1ccccc1)N1CCOCC1 (stereo not given)	x	-1%	x	14%	-6%[46.1 µM]	-1%	x	3%[46.1 µM]
COc1ccc(-n2ccnc(NCCc3ccc(Cl)cc3)c2=O)cc1OC	-4.2%	x	x	x	u	u	17%	x

Of the compounds above, these have a Cl atom:
SMILES	Cruzain inh Det	SARS PLpro yeast	NS1 function inh	RE007 growth inh	LASV entry inh	2A StopGo	Cruzain inh noDet	Marburg entry inh
CCOC(=O)c1c(C)n(O)c2ccc(Cl)cc2c1=O	0.7%	-5%	-35%	17%	-4%	17%	4%	7%
O=C(Nc1cccc(C(F)(F)F)c1)c1cc(-c2ccc(Cl)s2)nc2ccccc12	-2.5%	x	x	x	-6%[46.1 µM]	u	4%	2%[46.1 µM]
CCCn1nc(NC(=O)c2cccc(Cl)c2)c2cc3cccc(C)c3nc21	-1.3%	x	x	x	10%[46.1 µM]	7%	-14%	-21%[46.1 µM]
O=C(COc1ccccc1Cl)Nc1ccccc1C(=O)Nc1cccc(C(=O)O)c1	x	-1%	5%	6%	x	22%	x	x
COc1ccc(N2C(=O)C3CCCN3C2c2cccc(C)c2)cc1Cl (stereo not given)	9.7%	3%	-7%	-18%	17%	3%	7%	7%
O=C(NCc1cccnc1)C1CCN(c2ccc(S(=O)(=O)N3CCOCC3)cc2Cl)CC1	x	-1%	0%	-12%	u	u	x	u
C/C(CC(=O)Nc1ccc(Cl)cc1C(F)(F)F)=N\NC(N)=S	x	6%	-4%	2%	1%	-20%	x	-24%[46.1 µM]
Cc1nc(S(=O)(=O)c2ccc(Cl)cc2Cl)nc2c1CCC2	6.1%	6%	u	-11%	8%	15%	-1%	13%
COc1ccc(-n2ccnc(NCCc3ccc(Cl)cc3)c2=O)cc1OC	-4.2%	x	x	x	u	u	17%	x

High-throughput results deposited in PubChem by National Center for Advancing Translational Sciences (NCATS).
